Assay outcomes (PubChem)
HNF4A DNA FP = change in binding of human HNF4 alpha to DNA; P41235; HNF4a-FITC DNA binding, fluorescence polarization, 1 h; activity change, % at 10 µM; hit rate 0.3% among 360,000; in the data active = activity change above about 30%, passing the limit was not always enough;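 also: controls were the assay level and a saturating level of protein; the project sought stronger binding though the title names inhibitors; some compounds called inactive have numbers as strong as hits; positive values seem to mean higher polarization but the record does not say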
Target sequence (P41235 whole entry, looked up): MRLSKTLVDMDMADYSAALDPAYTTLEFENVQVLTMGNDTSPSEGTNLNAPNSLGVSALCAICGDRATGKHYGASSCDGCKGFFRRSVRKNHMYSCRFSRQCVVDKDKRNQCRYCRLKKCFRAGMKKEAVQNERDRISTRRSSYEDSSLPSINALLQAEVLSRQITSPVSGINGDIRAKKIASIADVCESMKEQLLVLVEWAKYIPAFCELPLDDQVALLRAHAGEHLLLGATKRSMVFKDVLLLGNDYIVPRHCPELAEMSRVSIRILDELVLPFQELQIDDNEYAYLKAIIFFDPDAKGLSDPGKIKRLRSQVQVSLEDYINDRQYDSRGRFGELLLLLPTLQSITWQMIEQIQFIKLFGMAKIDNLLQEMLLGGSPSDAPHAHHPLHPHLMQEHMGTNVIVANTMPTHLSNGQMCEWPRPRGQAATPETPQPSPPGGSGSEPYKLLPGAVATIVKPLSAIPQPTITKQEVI
FGF22 binding = shifts melting point of recombinant human FGF22; recombinant FGF22 thermal shift, SYPRO orange fluorescence; percent of sucrose octasulfate shift, DMSO zero; Q9HCT0; AID 651658; hit rate 1.5% among 340,000; calls only at 9.99 µM;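 active = melting point raised past a set limit in the mean and every replicate; three in four hits are not shown here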
Target sequence (Q9HCT0 whole entry, looked up): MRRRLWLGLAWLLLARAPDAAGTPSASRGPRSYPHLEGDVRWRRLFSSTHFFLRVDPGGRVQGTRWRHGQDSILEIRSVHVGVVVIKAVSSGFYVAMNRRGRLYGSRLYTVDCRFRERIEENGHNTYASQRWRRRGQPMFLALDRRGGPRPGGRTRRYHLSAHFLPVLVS
Numbers without * were called inactive; i = inactive; / = not tested or not shown.

SMILES	HNF4A DNA FP	FGF22 binding
COc1ccc(NC(=O)C2(C)CCCN2C(=O)C(C)C)cc1OC (stereo unspecified)	0.6	i
CCN(CC)C(=O)c1[nH]cnc1C(=O)Nc1ccccc1F	0.2	i
COc1ccccc1-c1cnc2c(Nc3cccc(OC(F)(F)C(F)F)c3)nccn12	3.5	i
C[C@@H]1CN([C@@H](C)CO)C(=O)CCCn2nncc2CO[C@@H]1CN(C)S(=O)(=O)c1cccc(F)c1	0.4	i
CCCNC(=O)C[C@@H]1CC[C@@H]2[C@H](COC[C@H](O)CN2C(=O)c2cc(Cl)cc(Cl)c2)O1	2.8	i
O=C(NCc1ccccc1)c1nc(-c2c(F)cccc2F)oc1-c1ccccc1	1.4	i
O=C(C[C@H]1CC[C@H]2[C@@H](COC[C@@H](O)CN2S(=O)(=O)c2ccccc2)O1)N[C@@H]1CCN(Cc2ccccc2)C1	1.0	/
O=C1c2ccccc2S(=O)(=O)c2cc(-c3nn[nH]n3)ccc21	2.6	i
CS(=O)(=O)Nc1ccc(Br)cc1	-1.6	i
Cc1ccc(S(=O)(=O)Nc2ccc3c(c2)C(=O)c2ccccc2-3)cc1	7.5	i
COc1ccc(OC2(C)CCN(Cc3ccc(-c4ccccc4)o3)C2)cc1 (stereo unspecified)	-2.8	i
CCCNC(=O)C[C@@H]1C[C@H]2c3cc(NC(=O)c4ccc5c(c4)OCO5)ccc3O[C@H]2[C@@H](CO)O1	0.8	i
CC1(C)CC(=O)C=C(c2ccccc2CO)C1=O	-4.3	i
COc1cc(F)ccc1-c1csc(C(O)c2ccccc2)n1 (stereo unspecified)	-0.2	i
Cc1ccc(F)c(S(=O)(=O)NC(=O)C2(C)CCN2C(=O)Cc2ccsc2)c1 (stereo unspecified)	2.8	i
COC(=O)c1ccc2nc(-c3ccc(OC)c(OC)c3)c(Cc3cccc(F)c3)n2c1	8.7	i
COc1cc(CNC(=O)Nc2nnc([C@@H]3C[C@H](O)[C@@H](CO)O3)s2)cc(OC)c1OC	5.7	i
COc1ccc(-c2noc(-c3csc([C@@H]4O[C@H](CO)[C@H](O)[C@H](O)[C@H]4O)n3)n2)cc1OC	0.6	i
O=C(C[C@@H]1C[C@H]2c3cc(NC(=O)C4CCC4)ccc3O[C@H]2[C@@H](CO)O1)NCc1ccc(-c2ccccc2)cc1	3.5	i
CC1(C(=O)NC2CCCC2)CCC(=O)N1CCCn1ccnc1 (stereo unspecified)	-1.5	i
CC(C)N1CCC1(C)C(=O)Nc1cc(-c2ccccc2)nn1C (stereo unspecified)	0.7	i
Cc1ccc(C(=Cc2ccc([N+](=O)[O-])cc2)C(=O)O)cc1	-3.1	i
COc1ccc(Br)c(Cn2c(C)c(C(=O)N(C)Cc3ccc(F)cc3)sc2=O)c1	-1.3	i
CC(=O)Nc1cncc(-c2cccc(C(=O)N(C)C)c2)n1	-2.1	i
O=C1C(=Cc2cccc(F)c2)Cc2ccccc21	1.6	i
COc1ccc(C(O)c2nc(-c3cccc(C(F)(F)F)c3)cs2)cc1 (stereo unspecified)	2.2	i
COC(=O)[C@H]1C[C@H](OC(=O)Nc2cccs2)[C@@]2(O)CN(S(=O)(=O)c3ccc(C)cc3)CC2[C@H]1C(=O)OC (stereo partly specified)	1.4	i
Cc1ccc(S(=O)(=O)N2CCOCC2)cc1NC(=O)Cn1nnc(-c2ccccc2)n1	2.1	i
Cc1nc2ccccn2c(=O)c1NC(=O)COc1ccccc1	0.9	i
COc1ccccc1-c1cnc(C(O)c2ccc(C(C)(C)C)cc2)[nH]1 (stereo unspecified)	2.9	i
CCOC(=O)C1(C)CCCN(C(=O)C(c2ccccc2)c2ccccc2)C1 (stereo unspecified)	2.0	i
O=C(NCc1ccncc1)[C@@H]1CCCN1C(=O)[C@@H]1CCCN1C(=O)c1cccs1	1.4	i
COc1ccc(CCNC(=O)c2cc(S(=O)(=O)N3CCc4ccccc43)ccc2F)cc1OC	5.5	i
COCCN1C(=O)c2ccccc2C1c1nc2ccccc2[nH]1 (stereo unspecified)	-1.6	i
CN(C)CCCNc1nc2cc(-c3cnn(C)c3)sc2c(=O)n1C	7.8	i
O=S1(=O)CC(N2CCN(CCO)CC2)CN1Cc1cn(Cc2cccc(Cl)c2)nn1 (stereo unspecified)	-4.9	i
COc1ccc(-c2ccc(C(=O)Nc3cccc(NS(C)(=O)=O)c3)c3occc23)c(C)c1	2.5	i
CC1(C(=O)Nc2ccc(Cl)c(Cl)c2)CCN1C(=O)CCC1CCCC1 (stereo unspecified)	0.9	i
Cc1ccc(S(=O)(=O)N2C[C@H]3C(=O)C[C@@H](c4cccs4)N(S(=O)(=O)c4ccc(C)cc4)[C@H]3C[C@H]2c2ccccc2)cc1	1.9	i
CC1(C(=O)Nc2ccc3c(c2)OCO3)Cc2c(-c3ccc4c(c3)OCO4)ccnc2O1 (stereo unspecified)	-0.6	i
COC(=O)c1ccc(Cn2c(C)c(C(=O)NCc3ccc(Cl)c(Cl)c3)sc2=O)o1	3.7	i
CN(C(=O)C(C)(C)C)[C@H]1C[C@H]2c3[nH]c4ccccc4c3CCN2C(=O)[C@H]1CO	-115.2	i
COCCn1c2nc(=O)n(-c3ccccc3)c(=O)c-2nc2ccccc21	-97.0	i
O=C1NC[C@@H](CCCCN2CCN(CCc3ccccc3)C(=O)C2=O)N(CCc2ccc(O)cc2)C1=O	-0.2	i
CC(C)=CCC[C@H](C)C[C@@H]1Cc2[nH][nH]c(=O)c2[C@H](c2ccc(Cl)cc2)O1	0.0	i
Nc1nc2c(Br)ccc(Br)c2cc1C(=O)NCCc1ccccc1	-0.1	i
O=C(C[C@H]1C[C@H]2c3cc(NS(=O)(=O)c4ccc(F)cc4)ccc3O[C@H]2[C@H](CO)O1)NCc1cc(F)ccc1F	-10.1	i
Cc1ccc([C@H]2C[C@H](n3cc(C4CC4)nn3)[C@@H](O)CN2CC2CCCCC2)cc1	1.4	i
C[C@@H]1CCCCO[C@H](CN(C)Cc2ccc3c(c2)OCO3)[C@@H](C)CN([C@H](C)CO)C(=O)c2cc(NC(=O)c3ccccc3)ccc2O1	-3.0	i
OC(c1ccc(F)c(F)c1)c1nc(-c2ccc3c(c2)OCO3)cs1 (stereo unspecified)	-0.8	i
N#CCC(C(=O)c1cccnc1)c1ccccc1 (stereo unspecified)	1.6	i
CC(=O)N1CCOc2ccc(S(=O)(=O)N3CCC(C(=O)NCc4ccc(Cl)cc4)CC3)cc21	7.0	i
O=C(Nc1ccc(F)c(Cl)c1)c1csc([C@@H]2O[C@H](CO)[C@H](O)[C@H](O)[C@H]2O)n1	-0.4	i
OC(c1ccccc1)c1ccccc1CN1CCCNC1=S (stereo unspecified)	-1.7	i
COC(=O)C(C#N)(CCC(=O)c1ccccc1)CCC(=O)c1ccccc1	6.2	i
O=C(NC1CCCC1)C1C(c2ccc(C(F)(F)F)cc2)=Nc2ccccc2N1C(=O)c1cccc(C(F)(F)F)c1 (stereo unspecified)	5.8	i
O=c1c(-c2cccnc2)nc2ccccc2n1C(c1ccccn1)c1nc2ccccc2[nH]1 (stereo unspecified)	-1.1	i
COc1ccc(Cl)c(-c2cc(C(=O)NCc3ccco3)[nH]n2)c1	-0.3	i
Cc1ccc(NC(=O)CNC(=O)CN2C(=O)c3ccccc3C2=O)cc1	5.0	i
CCCCN1C(=O)C(CC(=O)NCCc2ccccn2)CC(C(=O)N(C(C)C)C(C)C)=C1C (stereo unspecified)	-2.9	i
Next section.
SMILES	HNF4A DNA FP	FGF22 binding
Cc1c(C(=O)NCc2ccc(F)cc2)sc(=O)n1Cc1ccc(C(=O)c2ccccc2)cc1	5.3	i
CCCCc1c(-c2ccccc2OC)ncn1CCc1cccc(F)c1	-3.3	i
COc1cc(F)ccc1-c1csc(C(NC(C)=O)c2ccc(F)c(F)c2)n1 (stereo unspecified)	-4.4	i
N#CCC(=O)Nc1ccc(C(=O)OCC(=O)Nc2cccc3ccccc23)cc1	5.0	i
CC1(C(=O)NCc2ccccc2)CCC(=O)N1CCCn1ccnc1 (stereo unspecified)	-1.8	i
N#CCCSC(=S)C1CCCC1=N (stereo unspecified)	11.0	i
CCCCN(C=O)c1c(CC)nc2ccc(C(=O)N(CC)CCN(C)C)cn12	-1.5	i
CCc1ccc(CN2CCC(Oc3cc(C(=O)NC4CC4)ccc3OC)CC2)cc1	0.2	i
COc1cc(OC)cc(-c2noc([C@@H]3O[C@H](CO)[C@H](O)[C@H](O)[C@H]3O)n2)c1	-0.3	i
Cc1cccc(N=Cc2ccccc2O)c1C	-0.7	i
Cc1cccc(C)c1-n1nnnc1-c1nc2cc3ccccc3cc2[nH]c1=O	-9.7	i
O=C(Cn1ccnc1[N+](=O)[O-])N(CCO)CCO	1.5	i
CCCN(C)C1CN(Cc2cn(Cc3ccc(OC)cc3)nn2)S(=O)(=O)C1 (stereo unspecified)	1.6	i
Cc1ccccc1-c1cnc(C(O)c2ccccc2)[nH]1 (stereo unspecified)	2.6	i
COc1cc(CN2C[C@@H](CO)O[C@@H](n3cnc4c(N5CCN(C)CC5)ncnc43)C2)cc(OC)c1OC	0.0	i
Cc1cccc(C(=O)N2CCC(=O)N([C@H](COCc3cccc(Cl)c3)Cc3ccccc3)CC2)c1	2.3	i
COc1ccc(NC(=S)N2CCN(c3ccc4c(c3)C3CCN(C(=O)OCc5ccccc5)C4C3)CC2)c(OC)c1 (stereo unspecified)	-1.6	i
CC(CN1CCN(CCOCCO)CC1)CN1c2ccccc2Sc2ccc(Cl)cc21 (stereo unspecified)	1.8	i
CN(Cc1ccccc1)C(=O)[C@@H]1CCCN1C(=O)[C@@H]1CCCN1C(=O)c1ccc(Cl)cc1	-4.2	i
Clc1ccc(-c2cnc3cccnn23)cc1	-2.2	i

Molecules listed so far containing two or more sulfur atoms (4):
SMILES	HNF4A DNA FP	FGF22 binding
Cc1ccc(F)c(S(=O)(=O)NC(=O)C2(C)CCN2C(=O)Cc2ccsc2)c1 (stereo unspecified)	2.8	i
COC(=O)[C@H]1C[C@H](OC(=O)Nc2cccs2)[C@@]2(O)CN(S(=O)(=O)c3ccc(C)cc3)CC2[C@H]1C(=O)OC (stereo partly specified)	1.4	i
Cc1ccc(S(=O)(=O)N2C[C@H]3C(=O)C[C@@H](c4cccs4)N(S(=O)(=O)c4ccc(C)cc4)[C@H]3C[C@H]2c2ccccc2)cc1	1.9	i
N#CCCSC(=S)C1CCCC1=N (stereo unspecified)	11.0	i

The listing picks up, repeating the 5 entries before the break.
SMILES	HNF4A DNA FP	FGF22 binding
Cc1cccc(C(=O)N2CCC(=O)N([C@H](COCc3cccc(Cl)c3)Cc3ccccc3)CC2)c1	2.3	i
COc1ccc(NC(=S)N2CCN(c3ccc4c(c3)C3CCN(C(=O)OCc5ccccc5)C4C3)CC2)c(OC)c1 (stereo unspecified)	-1.6	i
CC(CN1CCN(CCOCCO)CC1)CN1c2ccccc2Sc2ccc(Cl)cc21 (stereo unspecified)	1.8	i
CN(Cc1ccccc1)C(=O)[C@@H]1CCCN1C(=O)[C@@H]1CCCN1C(=O)c1ccc(Cl)cc1	-4.2	i
Clc1ccc(-c2cnc3cccnn23)cc1	-2.2	i
CC(=O)Nc1cncc(-c2ccccc2N(C)C)n1	-2.7	i
CCCCn1nnnc1C(c1cc2ccccc2o1)N1CCOCC1 (stereo unspecified)	2.2	i
Cc1ccccc1NC(=O)CNC(=O)N1CC(=O)Nc2ccccc21	-3.8	i
CCOC(=O)c1ccc(NC(=O)c2nc[nH]c2C(=O)N[C@@H](C)CO)cc1	1.5	i
CN(Cc1cnn(-c2ccccc2)c1)C(=O)c1cccc(S(=O)(=O)Nc2ccccc2F)c1	0.9	i
Cn1cnc(S(=O)(=O)N2CCCCC2c2cc(C(=O)Nc3ccc(F)c(Cl)c3)no2)c1 (stereo unspecified)	-0.8	i
COC[C@@H]1CCCN1c1ccc2c(c1)O[C@@H](COCc1ccccc1)CN([C@H](C)c1ccccc1)S2(=O)=O	-2.5	i
CCNC(=O)C1(C)CCCN(CCOc2ccc(OC)cc2)C1 (stereo unspecified)	-0.4	i
CN(CC(=O)NCC1CCCO1)S(=O)(=O)c1ccc2ccccc2c1 (stereo unspecified)	-3.7	i
Cc1c(NC(=O)COC(=O)c2ccccc2O)c(=O)n(-c2ccccc2)n1C	4.4	i
COc1ccc(-c2ccc(CN3C(C(C)C)C(=O)N(Cc4cn(CCC5OCCCO5)nn4)CCS3(=O)=O)cc2)cc1OC (stereo unspecified)	-6.0	i
CN(Cc1ccccc1)C(=O)c1ccc2nc([C@@H]3O[C@H](CO)[C@H](O)[C@H](O)[C@H]3O)[nH]c2c1	0.8	i
COc1ccc(-c2cc3nc(NCCOc4ccccc4)ccn3n2)cc1	6.8	i
Cc1nc(NC(=O)c2ccccc2)sc1-c1cc(C(=O)N2CCOCC2)nn1CCO	1.6	i
COc1ccc(NC(=O)C2Cc3c(-c4ccc(Cl)cc4)ccnc3O2)cn1 (stereo unspecified)	-0.9	i
O=C(Cc1c[nH]c2ccccc12)N1CCN(S(=O)(=O)c2ccc(F)cc2)CC1	-1.8	i
O=C(C[C@H]1CC[C@@H]2[C@H](COC[C@H](O)CN2Cc2cccc(C(F)(F)F)c2)O1)NCCc1ccccc1	5.0	i
CC(=O)NC(c1ccccc1)c1nc(-c2ccc(C)c(C)c2)cs1 (stereo unspecified)	3.1	i
CCCCNC(=O)C1(C)CCCCN1C(=O)c1ccc2sccc2c1 (stereo unspecified)	0.1	i
CC(=O)NCCNC(=O)C1Cc2c(-c3ccc4c(c3)OCO4)ccnc2O1 (stereo unspecified)	-0.9	i
Cc1ccccc1-c1cc2nc(OCC3CCCO3)n(C)c(=O)c2s1 (stereo unspecified)	8.0	i
C#CCNC(=O)C[C@@H]1C[C@@]2(C(=O)OC)CCCCC=C2N(CCc2ccc(OC)c(OC)c2)C1=O	-2.2	i

This is a subset; rates above refer to the full screens.
